# From PubChem
# VACV mCherry inh = vaccinia inhibition (mCherry reporter); Vaccinia virus mCherry reporter infection, fluorescence; about a quarter of the inactives have no number; Potency, µM (titrated, usually from 36.5 µM), for inactives: at the highest dose activity change, negative = inhibition, hits mostly inhibitors; 310,000 tested, 0.63% active; AID 720579; active = well fitted inhibition curve with a large enough effect; inconclusive = small, poorly fitted or top-dose-only effect; inactive = no such curve, though single readings can be large or run the other way; tested in A549 cells; further: nearly all actives have a fitted effect of over 35% in size; inactives centre near -10
# VACV Venus inh = vaccinia inhibition (Venus reporter). 330,000 tested, 0.46% active. Potency, µM (titrated, usually from 36.5 µM), inactives show at the highest dose activity change, negative = inhibition, usual class: inhibitors. Vaccinia virus Venus reporter expression, fluorescence; active means well fitted inhibition curve with a large enough effect; inconclusive means small, poorly fitted or top-dose-only effect; inactive means no such curve, though single readings can be large or run the other way; tested in A549 cells; further: nearly all actives have a fitted effect of over 30% in size; inactives centre near -10
# Numbers without * were called inactive; i = inactive; ? = inconclusive; / = not tested or not shown; & = joins results of further samples; [ ] = remark or other dose. On the % scale 0 is the no-effect control and ±100 the full control effect; potency means the concentration at half of the fitted maximal effect.
SMILES,VACV mCherry inh,VACV Venus inh
C[C@H](NC(=O)c1ccco1)C(=O)Nc1ccc(S(=O)(=O)N2CCCC2)cc1,i,?
O=C(CCS(=O)(=O)c1cc(Br)cc2c1N(C(=O)C1CC1)CC2)Nc1ccc(C(F)(F)F)cc1,-15%,-9%
Cc1ccc(NC(=O)CN2C(=O)C(c3ccccc3)=NC2(C)C)cc1C,-17%,-11%
O=C(Cc1sc(-c2ccccc2Cl)nc1-c1ccccc1)Nc1ccccc1,/,1%
CC(C)(C)OC(=O)CC[C@@H](C(=O)N1CCN(C(=O)OC(C)(C)C)CC1)n1cc(C(CO)NC(=O)OC(C)(C)C)nn1 (some centres not stated),-13%,-9%
CCCN1CCN(C2CCCCC2NS(=O)(=O)c2ccccc2)CC1 (configuration not stated),-6%,-20%
CC(=O)N/C(=C\c1ccccc1)C(=O)OCc1ccccc1,i,2%
COc1cc(-c2nnc(SCC3(c4ccc(Br)cc4)OCCO3)o2)cc(OC)c1OC,/,-27%
CC(C)CC(=O)Nc1nnc(S(=O)(=O)N2CCCCCC2)s1,-7%,4%
CC12CCC(=O)N1C(C(=O)Nc1nc(-c3ccc(F)c(F)c3)cs1)CS2 (configuration not stated),i,-15%
CCC(C)[C@H]1CN=C(N)N1CCc1cccc(F)c1 (some centres not stated),-3%,-13%
Cn1c(CN2CCOCC2)nnc1SCC(=O)Nc1cccc(C(F)(F)F)c1,-8%,-2%
COc1cc2c(C(=O)NCCN(C)C)cn(CC(C)C)c(=O)c2cc1OC,-3%,-12%
Cc1ccc(/C=C(\C#N)C(=O)NC(C)C)o1,-15%,-10%
O=[N+]([O-])c1ccc(NCCNc2ccc([N+](=O)[O-])cc2)cc1,-6%,-2%
Cc1cc(/C=N/Nc2ccc([N+](=O)[O-])cn2)c(C)n1-c1ccccc1,-2%,-7%
Cc1ccc2c(CC(=O)Nc3c(C(=O)c4ccc(C)c(F)c4)oc4ccccc34)coc2c1,-15%,-13%
O=C(O)c1ccc2c(ccc3nn(-c4ccc(/C=C/c5ccc(-n6nc7ccc8cc(C(=O)O)ccc8c7n6)cc5[S+](=O)([O-])[O-])c([S+](=O)([O-])[O-])c4)nc32)c1,-10%,-15%
O=C(CSc1nnc(NC(=O)c2cccc(Cl)c2)s1)NCC1CCCO1 (configuration not stated),i,-10%
O=S(=O)(c1cccc2nonc12)N1CCN(c2cccc(Cl)c2)CC1,/,-5%

# Quoted at random: four compounds from above
SMILES,VACV mCherry inh,VACV Venus inh
O=C(CSc1nnc(NC(=O)c2cccc(Cl)c2)s1)NCC1CCCO1 (configuration not stated),i,-10%
Cn1c(CN2CCOCC2)nnc1SCC(=O)Nc1cccc(C(F)(F)F)c1,-8%,-2%
COc1cc2c(C(=O)NCCN(C)C)cn(CC(C)C)c(=O)c2cc1OC,-3%,-12%
Cc1cc(/C=N/Nc2ccc([N+](=O)[O-])cn2)c(C)n1-c1ccccc1,-2%,-7%

# Carrying on.
SMILES,VACV mCherry inh,VACV Venus inh
Cc1ccc(OCCNS(=O)(=O)c2ccc(N3CCCC3=O)cc2)cc1C,?,?
CCc1ccc(S(=O)(=O)NCc2nc(N3CCCC3)c3cccc(C)c3n2)cc1,-1%,1%
Cc1c(=O)n(OCc2ccccc2F)c2ccccc2[n+]1[O-],-14%,-3%
CCOC(=O)C1CCCN(S(=O)(=O)c2cn(C)c(=O)n(C)c2=O)C1 (configuration not stated),i,0%
CCOc1ccc(NC(=O)N(CCN2CCOCC2)Cc2ccc3c(c2)CCCN3CC)cc1,/,-10%
CC(C)C(C)(C#N)NC(=O)CSc1ncnc2sc(-c3ccccc3)cc12 (configuration not stated),?,?
CN(CC(=O)NCCN1CCOCC1)S(=O)(=O)c1ccc(Cl)cc1,-12%,-12%
O=C(NCCN1CCOCC1)c1cccc2c1C(=O)c1ccc(N3CCCC3)cc1S2(=O)=O,i,4%
CCCCCCSc1ccc([C@H]2N[C@@](C)(C(=O)OC)[C@H]3C(=O)N(C)C(=O)[C@@H]23)cc1,-27%,-27%
COc1ccc(-c2csc(C(NC(C)=O)c3cccc(F)c3)n2)cc1 (configuration not stated),8%,-11%
ClCc1csc(-c2ccccc2Cl)n1,?,?
COc1ccc(-c2csc(NC(=O)C3CC(=O)N(Cc4ccccc4)C3)n2)cc1OC (configuration not stated),-16%,?
c1ccc(CCNc2ncnc3nc[nH]c23)cc1,i,-26%&-27%
COc1ccccc1Nc1ccc(NS(=O)(=O)c2ccc(C(C)=O)cc2)cc1,?,-23%
Cc1c(C(=O)N(C)C2CCOC2)cnn1-c1ncc2c(n1)-c1ccccc1CCC2 (configuration not stated),-8%,7%
Cc1ccc(N(CC(=O)NCc2ccc3c(c2)OCO3)S(C)(=O)=O)cc1,-11%,-10%
Cn1nc(C(=O)N2CCN(S(=O)(=O)/C=C/c3ccccc3)CC2)c2ccccc2c1=O,-7%,-17%
COCCn1c(SCC(=O)Nc2nc(C)c(Cl)cc2Cl)nc2ccccc21,-14%,-8%
Cc1ccc(C(=O)Nc2cccc(C(=O)NCc3ccccc3)c2)cc1,-19%,-29%
NS(=O)(=O)c1cc(C(=O)O)c(NCc2ccco2)cc1Cl,-16%&-20%,-15%&-5%
COc1ccnc(Oc2cc(Cl)cc(Cl)c2)c1C#N,i,-11%
O=C(Nc1cnccc1C(F)(F)F)NC1CCCCC1,i[7.34 µM],1%[7.34 µM]
Nc1[nH]n(-c2ccccc2)c(=O)c1N=Nc1ccc2c(c1)OCCO2,0%,-10%
COc1ccc(NC(=S)N2CCC(Cc3ccccc3)CC2)cc1OC,-25%,-22%
O=C(NCc1cccc(C(F)(F)F)c1)C1CC(c2c(Cl)cccc2Cl)=NO1 (configuration not stated),?,-23%
CCOC(=O)CSc1ccc(S(=O)(=O)N(CC)CC)cc1[N+](=O)[O-],-4%,-8%
NP(=O)(OCC(F)(F)F)Oc1cccc2ccccc12 (configuration not stated),-10%,2%
O=C(Cn1c(=O)c(=O)n(Cc2ccccc2)c2ccc(Cl)cc21)Nc1cccc(F)c1,i,-9%
COCCn1c(SCC(=O)c2ccc(F)cc2)nnc1C(C)C,i,-10%
COc1ccc(NC(=O)N2CCCn3nc(C)cc32)cc1OC,-5%,-13%
O=C1C(O)=CC(=C(c2ccccc2)c2ccccc2)c2ccccc21,?,-7%
CCN(C(=O)CSc1nnnn1C)C1CCCCC1,i,10%
COc1ccc(-c2nc3c4ccccc4n(CC(=O)Nc4ccc(C(C)C)cc4)c(=O)n3n2)cc1,2%,-1%
OC(CCN1CCCCC1)(c1ccccc1)c1ccccc1,-1%&-15%,-9%&-8%
Cc1nc2ccccc2c(=O)n1/N=C/c1cc(Br)cc(Br)c1O,-28%,4%
N#CCCN(C(=O)Nc1ccccc1)c1ccccc1,/,-9%
Cc1ccc(C)c(OCC(=O)OCc2csc(CC(=O)Nc3ccccc3C)n2)c1,i,-9%
Cc1c(C)c2c(c(C)c1O)CC[C@@](C)(CCC[C@H](C)CCC[C@H](C)CCCC(C)C)O2,-2%,-18%
Cc1ccc2c(c1)N(C(=O)CCC(=O)N1CCN(c3ccccn3)CC1)CCO2,21%,5%
Cc1cc(CSc2nc(C)cc(=O)[nH]2)c2ncccc2c1,i,-11%
Cc1ccc2c(c1)N(CC(=O)Nc1nccs1)C(=O)CO2,-12%,-1%
CCC(C)c1ccc(S(=O)(=O)N2CCN3CCCC3C2)cc1 (configuration not stated),-15%,-19%
Cc1cc(-c2ccccc2)nc(N/N=C/c2ccccc2F)n1,?,-20%
CCOC(=O)c1cnc2c(c(C)nn2CC)c1Cl,8%,1%
COC(=O)c1c(C(=O)OC)c(-c2cccc(C)c2)n2c1CS(=O)(=O)C2,/,-15%
Cc1c(C(C)C)c(=O)n(-c2ccc(S(=O)(=O)NC3CC3)cc2)n1C,2%,0%
Clc1ccc(Cc2ccccn2)cc1,-15%,-1%
CCOc1ccc(NC(=O)C2CC(C)=C(C)CC2C(=O)O)cc1 (configuration not stated),/,-1%
S=C(Nc1cccc(Cl)c1)NC1CCCCC1,-7%,?
COc1cc(NC(=O)c2noc3c2CCc2ccccc2-3)cc(OC)c1OC,-24%,-14%

# Following part.
SMILES,VACV mCherry inh,VACV Venus inh
COc1cccc(NS(=O)(=O)c2ccc(C)c(C(=O)N3CCCCC3)c2)c1,-2%,-14%
CC(C)c1ccc(NC(=O)C2CCC(CNC(=O)[C@@H]3Cc4ccccc4CN3)CC2)cc1 (some centres not stated),i,-24%
CC(C)(C)c1ccc(OCC(=O)Nc2ccncc2)cc1,-1%,-9%
O=C(C1CCCCC1)N1C[C@@H](n2cc(C3CC3)nn2)[C@H](O)C[C@@H]1c1ccc(Cl)cc1,-11%,-10%
CCC(C)NC(=O)c1ccc(NC(=O)CC2SC(N3CCCC3)=NC2=O)cc1 (configuration not stated),-11%,-14%
CCOC(=O)c1ccc(CSC(=N)N)o1,-10%,0%
CSc1nc(C)c(CCO)c(=O)[nH]1,-5%,-11%
CC1CCC(NC(=O)CC2Oc3ccccc3NC2=O)CC1 (configuration not stated),-8%,-6%
Cc1cc(C)cc(OCC(=O)NN2Cc3ccccc3C2=N)c1,/,-17%
Cc1cc(C2=NNC(=Nc3ccc(S(=O)(=O)N4CCOCC4)cc3)SC2)c(C)n1CC1CCCO1 (configuration not stated),-14%,-4%

# The final 4 records of the part above come first, to join the parts:
SMILES,VACV mCherry inh,VACV Venus inh
CSc1nc(C)c(CCO)c(=O)[nH]1,-5%,-11%
CC1CCC(NC(=O)CC2Oc3ccccc3NC2=O)CC1 (configuration not stated),-8%,-6%
Cc1cc(C)cc(OCC(=O)NN2Cc3ccccc3C2=N)c1,/,-17%
Cc1cc(C2=NNC(=Nc3ccc(S(=O)(=O)N4CCOCC4)cc3)SC2)c(C)n1CC1CCCO1 (configuration not stated),-14%,-4%
COc1ccc(-c2csc(NC(C)c3nc4cc(Cl)c(N5CCCCC5)cc4n3CCCO)n2)cc1 (configuration not stated),8.9µM*,?
O=c1[nH][nH]c(=O)n1-c1ccccc1,i,-21%
CC(=O)Nc1cccc(NC(=O)C2CCCO2)c1 (configuration not stated),i,-5%
CCN(CC)CCN1C(=O)C(=O)/C(=C(/O)c2ccc(OC(C)C)cc2)C1c1cccs1 (configuration not stated),i,2%
CCCNC(=O)c1onc(CSc2ccc(Cl)cc2)c1C(=O)NCCC(C)C,-11%,-6%
COc1cc2ncc(C(=O)c3ccc(C)cc3)c(N3CCCCC3)c2cc1OC,-21%,-16%
CCOC(=O)c1ccc(NC(=O)CC2SCCNC2=O)cc1 (configuration not stated),-6%,-9%
Cc1cccc(N2CCN(c3ncnc4c3cnn4-c3ccc(Cl)cc3)CC2C)c1 (configuration not stated),-28%,-3%
Cc1cc(C)c(S(=O)(=O)NCC(c2ccco2)S(=O)(=O)c2ccccc2)c(C)c1 (configuration not stated),-10%,-8%
CCOC(=O)N1CCN(C(=O)c2cc3c(-c4ccc(Cl)cc4)nn(C)c3s2)CC1,0%,-12%
Cc1cc(Cl)ccc1OCC(=O)N(Cc1ccco1)Cc1ccccc1F,-1%,-6%
COc1ccc(Br)c(C(=O)NCCC(C)C)c1,i,-22%
Cc1ccc2c(c1)-c1c(cnn1CC(=O)N1CCN(c3ccccc3F)CC1)CO2,-16%,-11%
COC(=O)C1=CN(Cc2cccs2)C=C(C(=O)OC)C1c1cccc(O)c1,-2%,5%
CN(C)S(=O)(=O)c1cc(C(=O)N2CCC(C(=O)O)(c3ccccc3)CC2)ccc1Cl,5%,-2%
C=CCn1c(O)c(C=Nc2ccc(OC)cc2C)c(=O)[nH]c1=O,-26%,-19%
CCCCn1c(N)c(N(CCOC)C(=O)c2ccc(COc3ccccc3)o2)c(=O)[nH]c1=O,i,-8%
C/C(=N/NC(=O)CN1CCN(S(=O)(=O)c2ccc(C)cc2)CC1)c1cccc(O)c1,-20%,-21%
COc1cc(C(=O)NCCCc2ccccc2)cc(OC)c1OC,-15%,-6%
CSc1ncccc1C(=O)N1CCc2nnc(C(NC(=O)c3ccoc3)C(C)C)n2CC1 (configuration not stated),i,-8%
COc1ccc(CNC(=O)COC(=O)c2cc(C)nc3ccccc23)cc1,i,-4%
O=C(Cc1ccccc1)Nc1ccc(S(=O)(=O)N2CCCC2)cc1,0%,3%
COc1ccc(-c2[nH]c3c(c2-c2c(-n4cccc4)n(C)c(=O)n(C)c2=O)c(=O)n(C)c(=O)n3C)cc1,-13%,4%
O=C(N/N=C/c1ccc(Cl)cc1Cl)Nc1ccccc1,i,-25%
CCn1c(C)cc(/C=C2\SC(=O)N(CC(=O)Nc3ccc(C)c(C)c3)C2=O)c1C,-8%,-8%
Cc1ccc(S(=O)(=O)N2[C@@H](c3cccc(Cl)c3)C(C(=O)O)=CC[C@H]2c2ccc(Cl)cc2)cc1,i,-10%
CCOC(=O)c1c(NC(=O)CSc2nc3cc(Cl)ccc3c(=O)n2Cc2ccco2)sc(C(=O)N(C)C)c1C,5%,-12%
CCCc1cc(=O)[nH]c(SCC(=O)Nc2nonc2N)n1,i,-12%
O=c1c([N+](=O)[O-])c(O)c2ccccc2n1Cc1ccccc1,i,-6%
NC(=O)c1ccc(OCCC(O)N2CC=C(c3ccc(F)cc3)CC2)cc1 (configuration not stated),17%,242%[activator]
O=C(CN1C(=O)NC2(CCCCC2)C1=O)Nc1ccc(F)cc1,-4%,-7%
COCCSc1ccccc1C(=O)NCc1ccc(S(N)(=O)=O)cc1,-8%,-5%
CCC(C(=O)NCCc1ccc(Cl)cc1)n1nc(C)c2c(C)n(-c3ccccc3)nc2c1=O (configuration not stated),-3%,-10%
COc1cc(/C=C/c2nc3ccccc3c(=O)[nH]2)cc(Br)c1O,-7%,0%
COc1cccc2sc(Nc3nnc(-c4ccccc4Cl)o3)nc12,?,-29%
CN1C(=O)CSc2ccc(NC(=O)N3CCc4ccccc43)cc21,-27%,?
